From PubChem
VDR inh: Inhibitors of the vitamin D receptor (VDR): qHTS; Vitamin D3 receptor (Homo sapiens), P11473; VDR-SRC2-3 peptide fluorescence polarization, 2 h; Potency, µM, for inactives: max response, negative = inhibition, usual class: inhibitors; 400,000 tested, 0.93% active; AID 504847, 2011; active = well fitted inhibition curve with a large enough effect; inconclusive = small, poorly fitted or top-dose-only effect, or another doubt; inactive = no such curve, though single readings can be large or run the other way; note: series mostly up to about 120 µM
Target sequence (P11473 whole entry, looked up): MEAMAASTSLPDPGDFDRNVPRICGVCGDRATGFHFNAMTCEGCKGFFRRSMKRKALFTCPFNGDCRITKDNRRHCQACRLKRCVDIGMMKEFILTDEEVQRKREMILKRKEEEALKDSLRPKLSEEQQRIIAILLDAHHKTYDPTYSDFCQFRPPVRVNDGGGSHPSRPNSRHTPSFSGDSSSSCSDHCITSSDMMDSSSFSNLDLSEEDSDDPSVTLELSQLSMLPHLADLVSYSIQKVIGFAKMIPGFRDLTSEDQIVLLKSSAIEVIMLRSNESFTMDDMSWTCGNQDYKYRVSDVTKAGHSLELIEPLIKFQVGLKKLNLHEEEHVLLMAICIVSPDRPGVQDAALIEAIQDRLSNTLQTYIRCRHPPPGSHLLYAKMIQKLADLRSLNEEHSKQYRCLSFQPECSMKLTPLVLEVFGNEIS
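VDR–SRC2-3 interaction, FP format. Cmpds 23 nl via pintool, brief spin, 2 h ambient incubation.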
Starred values were filed as active, the others as inactive; u = inconclusive; & = joins results of further samples. % is set by controls: 0 for no effect and ±100 for the full control effect; potency is the fitted concentration of half-maximal effect.

SMILES | VDR inh
N#Cc1nc(COc2ccccc2)oc1N1CCN(Cc2ccccc2)CC1 | -13%
CN(C)c1ncnc2ccc(-c3ccoc3)cc12 | u
Cc1ccc(S(=O)(=O)/N=C2/NC(=O)/C(=C\c3cc(Br)cc(Br)c3O)S2)cc1 | 50µM*
COC(=O)c1sc2ccccc2c1-n1cccc1C(=O)C(=O)Nc1ccc(F)cc1 | 15%
CCc1c(C)nc(SC(C(=O)O)c2ccccc2)c(C#N)c1C (stereo not drawn) | -13%
COc1cccc(Cn2c(=O)c(CCc3ccccc3)nc3cnc(N4CCNCC4)nc32)c1 | u
COc1cc(C(=O)OCn2nnc3ccccc3c2=O)cc(OC)c1OC | 0%
S=C(Nc1ccc(Cc2ccncc2)cc1)Nc1cccc(Cl)c1 | 13%

Further entries
SMILES | VDR inh
O=C(COC(=O)c1ccccc1[N+](=O)[O-])NCCCc1ccccc1 | 12%
CCn1cc(C(=O)Nc2ccc(F)c(F)c2)cn1 | 7%
CC1Oc2cc3oc4c(O)c(O)ccc4c(=O)c3c(O)c2C1(C)C (stereo not drawn) | 5%
CCOC(=O)Cn1c(=O)n(CC2CCCO2)c2nc(-c3c(F)cccc3Cl)nc(C(N)=O)c21 (stereo not drawn) | 10%
CCCOc1ccc(/C=N/Nc2ccccc2[N+](=O)[O-])c(OCCC)c1 | 7%
O=C(c1ccc2ccccc2c1)N1CCN(c2ccc([N+](=O)[O-])c(N3CCOCC3)c2)CC1 | 13%
CCOc1ccc(CC(=O)Nc2c(C(=O)c3ccc(F)cc3)oc3ccc(Cl)cc23)cc1OCC | -17%
CCCCOc1ccc(C(=O)NCC(=O)NCC(c2cccs2)N2CCOCC2)cc1 (stereo not drawn) | -5%

Later entries
SMILES | VDR inh
COc1ccc(-c2onc(C)c2-c2cnn(-c3ccccc3)c2)c(O)c1C | 13%
CNC(=O)CSc1cn(CC(=O)N2CCCCCC2)c2ccccc12 | 8%
CCCCCCCCCCCCS(=O)(=O)CCC(=O)O | -19%
Cc1ccnc(SCC(=O)N2CCCc3ccccc32)n1 | 0%
O=C(CN(Cc1ccco1)C(=O)CNS(=O)(=O)c1ccc(F)cc1)NCc1ccc(F)cc1 | 11%
N#Cc1ccc(-c2cccs2)nc1SCc1ccc(Cl)cc1Cl | -3%
CCc1cccc(CC)c1N(COC)C(=O)Cn1ccccc1=N | -4%
O=C(Nc1ccc2nc3n(c(=O)c2c1)CCCC3)c1cccc(F)c1 | -5%

Next section:
SMILES | VDR inh
COc1ccc(NC(=O)CN(C)S(=O)(=O)c2ccc3c(c2)n(C)c(=O)c(=O)n3C)cc1 | 12%
Cc1ccc(S(=O)(=O)N2CCN(C(=O)CCn3nc(C)c(C)c3C)CC2)cc1C | 1%
O=C(CCl)Nc1cccc(-c2cnc3ccccc3n2)c1 | -22%
O=C(COC(=O)C1CC(=O)N(Cc2ccco2)C1)c1ccc(OC(=O)c2ccco2)cc1 (stereo not drawn) | u
Cc1ccc(-c2nc(NC(=O)CSc3ccc4ccccc4n3)ns2)cc1 | -5%&-11%
CC(C)c1ccccc1NC(=S)N1CCN(S(=O)(=O)c2cccs2)CC1 | -18%
O=C(O)CCc1nc2ccccc2c(=O)[nH]1 | 5%
CCOc1ccc(NS(=O)(=O)c2ccc(C(=O)NNC(=O)c3ccccc3O)cc2)cc1 | 2%

5 structures out of the list, sorted by molar mass, rising.
SMILES | VDR inh
O=C(O)CCc1nc2ccccc2c(=O)[nH]1 | 5%
Cc1ccc(-c2nc(NC(=O)CSc3ccc4ccccc4n3)ns2)cc1 | -5%&-11%
O=C(COC(=O)C1CC(=O)N(Cc2ccco2)C1)c1ccc(OC(=O)c2ccco2)cc1 (stereo not drawn) | u
COc1ccc(NC(=O)CN(C)S(=O)(=O)c2ccc3c(c2)n(C)c(=O)c(=O)n3C)cc1 | 12%
CCOc1ccc(NS(=O)(=O)c2ccc(C(=O)NNC(=O)c3ccccc3O)cc2)cc1 | 2%

(further entries)
SMILES | VDR inh
Cc1[nH]n(C(N)=S)c(=O)c1N=Nc1cccc(Cl)c1 | -5%
Cc1cccc(N=C2NC(=O)/C(=C/c3cccnc3)S2)c1C | 5%
Cc1cc(C)cc(NC(=O)[C@H](NC(=O)[C@@H]2Cc3ccccc3CN2)c2ccccc2)c1 | -3%
CCOc1cc(C(=O)NC(=S)Nn2cnnc2)cc(OCC)c1OCC | -2%
O=C(/C=C/c1cc(Br)ccc1F)OCC(=O)N1CCOCC1 | 8%
COc1cc(C(=O)OC(C)CN2C(C)CCCC2C)cc(OC)c1OC (stereo not drawn) | -3%
COc1ccc(-c2cc(C(F)(F)F)n3nc(C(=O)Nc4sc5c(c4C(=O)OC(C)C)CCC(C)C5)cc3n2)cc1 (stereo not drawn) | -23%
Cc1ccc(NC(=O)CN(C)C(=O)COc2cccc3cccnc23)cc1 | -6%

Next compounds:
SMILES | VDR inh
CC(=O)c1ccc(OCC(=O)N2CCCC(Nc3ccc(C)c(C)c3)C2)cc1 (stereo not drawn) | -11%
O=C(NNC(=O)c1ccc(Br)o1)c1csc(N2CCOCC2)n1 | 15%
COC1=C(Br)C(=O)c2ncccc2C1=O | 3.5µM*
C/C(=N\Nc1ccc(Cl)c(C(=O)O)c1)c1ccc(N2CCOCC2)cc1 | 10%
COc1ccc(S(=O)(=O)Nc2c(C)ccc3nsnc23)cc1OC | 4%
Nc1nccnc1C(=O)OCc1nc2sc3c(c2c(=O)[nH]1)CCCC3 | 7%
Cc1cc(C)n2nc(C(=O)Nc3ccc4c(c3)OCO4)nc2n1 | -15%
COc1ccc(OCC(=O)NNC(=O)C(=O)Nc2ccc(C)cc2)cc1 | -6%

(cont.)
SMILES | VDR inh
CCc1cc(C(=O)N2CCN(S(=O)(=O)c3cc(C)ccc3C)CC2)sc1C | 4%
CC(C)(C)NC(=O)C(c1cccs1)N(C(=O)c1csnn1)c1cccc(F)c1 (stereo not drawn) | 3%
Clc1ncc(CN2CCN(c3ccccc3)CC2)s1 | 7%
COc1ccc(C(=O)NCc2nnc(SCC(=O)Nc3ccccc3F)o2)cc1 | 15%
CCCCN(C)C(=O)c1cn(CC)c2ccc(S(=O)(=O)N(C)C)cc2c1=O | 1%
O=C(O)c1c(C(=O)O)c2ccccc2[nH]c1=O | -5%
O=[N+]([O-])c1cc(-c2ccc(/C=N\n3cnnc3)o2)cc([N+](=O)[O-])c1 | -6%
C=C(C)[C@@H]1CC[C@]2(C(=O)O)CC[C@]3(C)C(CCC4[C@@]5(C)CC[C@H](O)C(C)(C)C5CC[C@]43C)C12 (stereo partly drawn) | -13%

More entries
SMILES | VDR inh
Cc1nnc(N(C)C(=O)c2cccnc2)s1 | -3%
O=C(CCN1C(=O)/C(=C/c2ccc(F)cc2)SC1=S)NC1CCS(=O)(=O)C1 (stereo not drawn) | -2%
Cc1cc(OC(F)F)ccc1NC(=S)NC1CCCC1 | -21%
NS(=O)(=O)c1ccc(CCNC(=O)CN2C(=O)c3ccccc3S2(=O)=O)cc1 | -7%
Cc1[nH]n(-c2ccccc2)c(=O)c1CCO | -2%
Cc1cc(NS(=O)(=O)c2ccc(NC(=O)COc3ccc(C#N)cc3)cc2)nc(C)n1 | 6%
Cc1ccccc1Cn1c2ccccc2c2cnn(CC(=O)NCc3cccc(Cl)c3)c(=O)c21 | -2%
Cc1cccc(C(=O)OCc2cnc(Cl)s2)c1 | 7%

Carrying on.
SMILES | VDR inh
CCOC(=O)C1CCCN(c2nc3ccccc3nc2C(C#N)C(=O)OC(C)COC)C1 (stereo not drawn) | 12%
COc1ccc(C)cc1S(=O)(=O)Nc1ccncc1 | -6%
CCCCCC1=C(C(=O)OC)C(C(=O)OCC)N(S(=O)(=O)C(F)(F)F)c2ccccc21 (stereo not drawn) | 0%&5%
COc1ccccc1N1CCN(S(=O)(=O)c2ccc(F)c(C(=O)Nc3ccc(C)c(F)c3)c2)CC1 | 2%
O=C(CSc1nc2ncc(Cl)cc2[nH]1)c1ccc2c(c1)OCO2 | 7%
CCOc1ccc(/C=C\C(C)=N\O)cc1 | 1%
CC(C)Nc1nc(NC(C)C)nc(Nn2cnnc2)n1 | -6%
Cc1nn(-c2ccccc2)c(Cl)c1C(=O)Nc1c(C)n(C)n(-c2ccccc2)c1=O | 2%

Additional results follow:
SMILES | VDR inh
Cc1ccc2nc(C)cc(N/N=C/c3ccc(F)cc3)c2c1 | -8%
O=C(c1ccc(Cl)cc1Cl)N1CCSCC1 | u
CC(C)(CSc1ncccn1)NS(=O)(=O)c1ccccc1 | 4%
Cc1cc([N+](=O)[O-])ccc1NC(=O)c1ccco1 | -16%
CCCCN(C(=O)C1CC(=O)N(Cc2ccc(C)cc2)C1)c1c(N)n(CCCC)c(=O)[nH]c1=O (stereo not drawn) | u
Cc1cc(C)cc(NC(=O)[C@H]2O[C@@H]3OC(C)(C)O[C@@H]3[C@H]3OC(C)(C)O[C@H]32)c1 | 12%
COc1ccc(-c2nc(CN3CCC(C(=O)NC4CCN(Cc5ccccc5)CC4)CC3)c(C)o2)cc1OC | 13%
COc1ccc(C(=O)Nc2cccnc2Cl)cc1OC | 1%

Continuation.
SMILES | VDR inh
CC(=O)N1C(C)(C)CC(=NOC(=O)c2ccc(C)cc2)CC1(C)C | -4%
Oc1ccccc1-n1nc2ccc3nonc3c2n1 | 26%
N=C(N)c1ccccc1 | 7%&-11%&-8%
O=C(Nc1ccc(Cl)cc1)c1cccnc1N1CCCCC1 | -3%
COc1ccc(NC(=O)CC(C)C)c([N+](=O)[O-])c1 | 3%
COc1ccc(S(=O)(=O)n2nc(OCc3cccs3)cc2N)cc1 | -15%
Cc1ccc(N2C(=O)c3sc4nnc(C)c(=O)n4c3C2=O)cc1 | 2%
O=C(NCCCN1CCOCC1)c1nn(-c2ccccc2)c(=O)c2ccccc12 | -5%

(continued)
SMILES | VDR inh
COc1ccc(-n2nc(C(=O)NCC(=O)NC(C)C)c3ccccc3c2=O)cc1OC | 9%
COc1ccc(S(=O)(=O)N2CCCOC2CNC(=O)C(=O)NCc2ccco2)cc1 (stereo not drawn) | -12%
Cc1ccc2cc(CCNC(=O)c3cccc([N+](=O)[O-])c3)c(=O)[nH]c2c1C | -26%
C#CCOC(=O)c1ccccc1C(=O)O | -13%
O=C(Nc1ccccn1)c1ccc(Cl)c(S(=O)(=O)N2CCCCCC2)c1 | 6%
CC(=O)c1sc(NC(=O)CS(=O)(=O)c2ccc(F)cc2)nc1C | 3%
CCOC(=O)c1sc(NC(=O)C2c3ccccc3Oc3ccccc32)c(C(=O)OCC)c1C | -7%
CC(C)OC(=O)C1C2C=CC3(CN(Cc4cccs4)C(=O)C13)O2 (stereo not drawn) | -1%

Two compounds picked at random from the list so far:
SMILES | VDR inh
Cc1ccnc(SCC(=O)N2CCCc3ccccc32)n1 | 0%
COc1ccc(-c2onc(C)c2-c2cnn(-c3ccccc3)c2)c(O)c1C | 13%

The list continues:
SMILES | VDR inh
COc1cc(OC)c(OC)cc1CN1CCC(O)CC1 | 3%
COc1ccc(Cl)cc1NC(=O)Cn1c(=O)n(Cc2cccs2)c(=O)c2cccnc21 | 9%
COc1cccc(C(=O)C(C#N)=C(SC)SC)c1 | 40µM*
CCc1cc(C=C(Cl)Cl)oc(=O)c1C | 1%
Cc1sc2c(c1C)c(=O)n(CCc1ccccc1)c(=O)n2Cc1ccc(C(C)(C)C)cc1 | 6%
Cc1nnc(SCCn2c(N3CCCCC3)nc3c2c(=O)n(C)c(=O)n3C)s1 | 6%
Cc1cccc(/C=N/NC(=O)c2ccncc2)n1 | 4%
Cc1ccc(S(=O)(=O)CCC(=O)Nc2cc(Cl)ccc2-n2cncn2)cc1 | -10%

Next section
SMILES | VDR inh
CC1(C)CC(=O)C2=C(C1)OC(N)=C(C#N)[C@@]21C(=O)N(CC(N)=O)c2ccccc21 | -14%
CCN(C(=O)C(Cc1ccccc1)NS(=O)(=O)c1cccc2nsnc12)c1ccccc1 (stereo not drawn) | -16%
O=C(CN1CCN(S(=O)(=O)c2ccc(F)cc2)CC1)Nc1ccccc1F | 21%
COc1ccccc1Sc1ccccc1/C=N/NC(N)=O | 5%
Cc1cccc(CNc2ncncc2-c2ccccc2CN(C)C)c1 | u
COc1ccc([N+](=O)[O-])cc1NC(=O)CSc1ncccn1 | 9%
Cc1ccc(C)c(CNC(=O)c2sc3ncnc(N(C)C4CCCCC4)c3c2C)c1 | 12%
C/C(=N\NC(=O)Cn1ccc(C(F)(F)F)n1)c1ccc(N2CCOCC2)cc1 | 13%

(continued)
SMILES | VDR inh
COc1ccc(CN2CCC(n3nccc3NC(=O)c3ccc4c(c3)OCO4)CC2)cc1C | 13%
COc1cccc(CC2(CO)CCCN(C(=O)c3cc[n+]([O-])cc3)C2)c1 (stereo not drawn) | -7%
OCc1cn(-c2ccccc2)nc1-c1ccco1 | -2%
Cc1ccc(-n2c(=O)[nH]cc(C(=O)Nc3ccc4c(c3)OCCO4)c2=O)cc1 | -11%
O=C(NCC1CCC(C(=O)O)CC1)OCc1ccccc1 (stereo not drawn) | -5%
O=S(=O)(c1ccccc1)c1nnn2c1nc(N1CCN(c3ccccc3)CC1)c1cc(Cl)ccc12 | 2%
O=[N+]([O-])c1ccc2ccn(C3OCC(O)C(O)C3O)c2c1 (stereo not drawn) | 2%
CC(C)(C)NC(=O)NC(=O)COC(=O)c1cccc(OC(F)F)c1 | -10%

Carrying on:
SMILES | VDR inh
Cc1cc(C)c(S(=O)(=O)Cc2ccccc2)c(OC(C)C)n1 | -5%
COC(=O)C1=C(C)N(c2ccc(OC)cc2)C(=O)/C1=C\c1cccs1 | -20%
O=C(CCN1CCCCC1)c1cccc(Cl)c1 | u
Cc1ccc(NC(=O)c2cccc(S(=O)(=O)N3CCN(c4ccccc4)CC3)c2)nc1 | 3%
CCN(CC)C(=O)Cn1c(=O)n(CCCCCC(=O)NCc2ccccc2Cl)c(=O)c2sccc21 | -2%
CCc1ccc(NC(=O)c2cc(S(=O)(=O)N3CCCC3)c[nH]2)cc1 | 11%
Cc1ccc(S(=O)(=O)N(C)C)cc1NC(=O)CSc1ncc(C(F)(F)F)cc1Cl | -10%

This is a subset (hit frequency here may not be typical).
